HSD17B inh = blocks hydroxysteroid 17-beta dehydrogenase activity | Q99714 | recombinant HSD17B10, NADH fluorescence kinetic; many of its hits are not listed in these tables | Potency, µM (top dose mostly 57.1 µM), without a hit: at the top dose activity change, negative = inhibition, usual class: inhibitors | 75,000 tested, 7.6% active; active means well fitted inhibition curve with a large enough effect; inconclusive means small, poorly fitted or top-dose-only effect; inactive means no such curve, though single readings can be large or run the other way;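 further: the protocol describes HADH2 (HSD17B10) and not the HSD17B4 of the title; nearly all actives have a fitted effect of over 70% in size; most hits overshoot -100% by far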
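Enzyme plus compound, 15 min room temperature; substrate mix added (NAD+ 1 mM, beta-hydroxybutyryl-CoA 90 uM final); plates read kinetically for NADH fluorescence. HADH2 was His-tagged, E. coli-derived, 20 nM.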
The depositor's hits bear a star; ? = inconclusive; [ ] = dose if it differs, or a comment. On the % scale 0 is the no-effect control and ±100 the full control effect; potency means the concentration at half of the fitted maximal effect. The list is partial, so the mix of outcomes need not match the whole.

SMILES | HSD17B inh
CC(C)N(CCc1ccncc1)C(=O)Nc1ccc(Cl)c(Cl)c1 | 3%
COCC(C)NC(=O)CCS(=O)(=O)c1nc(-c2ccc(OC)cc2)cc(C(F)(F)F)n1 (stereo not drawn) | 131%[activator]
Cc1cc2c(N=O)c(NO)ccc2[nH]1 | -6%
Cc1ccccc1C(=O)Nc1ccc(Br)c(C)n1 | 1%
CCc1ccc(CNCc2cccnc2)cc1 | 9%
O=C(COC(=O)Cc1ccc(S(=O)(=O)N2CCCCC2)s1)Nc1ccc2c(c1)OCO2 | -12%
CC(C)CCNC(=O)CN(C(=O)CCC(=O)Nc1ccccn1)c1ccc2c(c1)OCO2 | -6%
CCCCC(=O)NC1(C(F)(F)F)C(=O)Nc2c1c(=O)n(C)c(=O)n2C (stereo not drawn) | 9%
Fc1ccc(CSc2ncnc3c2oc2ccccc23)cc1 | -7%
CCCCOc1ccccc1C1C(C(N)=O)=C(C)Nc2nnnn21 (stereo not drawn) | 5%
COc1ccc(-c2nnc(SCC(=O)Nc3cc(C)on3)n2C)cc1OC | -14%
Cn1c(-c2ccc(C(=O)c3ccccc3)s2)nc2ccccc21 | 25µM*
CN(C)C(=O)CSc1nnc([C@H](Cc2c[nH]c3ccccc23)NC(=O)OC(C)(C)C)o1 | 1%
COc1ccc(C)cc1NC(=O)c1nnn(Cc2cc(C)ccc2C)c1N | 3%
Cc1ccnc(NS(=O)(=O)c2ccc(N=CC3=C(O)CC(C)(C)CC3=O)cc2)n1 | -1%
O=C1CC(c2ccc(S(=O)(=O)NC3CC3)cc2)CN1 (stereo not drawn) | 7%
Cn1c2ccc(CC(=O)O)cc2c2cc(CC(=O)O)ccc21 | ?
Cc1ccccc1OCCN1C(=O)c2ccccc2C1=O | -1%
CCOC(=O)c1cnc(-n2nc(C)cc2C)nc1Nc1ccc2c(c1)OCO2 | 12%
Fc1ccc(-c2cc(C(F)(F)F)nc(NCC3CCCO3)n2)cc1 (stereo not drawn) | ?
O=C(c1nc2ncccn2n1)N1CCN(c2ccccc2)CC1 | 9%
CC1CCCCC1NC(=O)Cn1nc(-c2ccccc2)ccc1=O (stereo not drawn) | 7%
CC(C)N1CCC2(CC1)N=C(c1ccc3c(c1)OCO3)CC(c1cc(Cl)ccc1O)N2 (stereo not drawn) | -3%
Cc1ccc(S(=O)(=O)/C=C\C#N)cc1 | 40µM*
COc1ccccc1C(c1nnnn1CCc1ccccc1)N1CCN(c2ccccc2)CC1 (stereo not drawn) | 1%

The closing two entries of the section before are carried over, then new ones follow:
SMILES | HSD17B inh
Cc1ccc(S(=O)(=O)/C=C\C#N)cc1 | 40µM*
COc1ccccc1C(c1nnnn1CCc1ccccc1)N1CCN(c2ccccc2)CC1 (stereo not drawn) | 1%
O=C(Cn1c(NCCCO)nc2ccccc21)c1cccc(Br)c1 | 0%
CC(=O)CC(=O)Nc1ccccc1NC(C)=O | 8%
NS(=O)(=O)c1ccc(CCNc2cc(=O)n(Cc3ccc(F)cc3)c(=O)[nH]2)cc1 | 25µM*
Cc1nn2c3ccccc3nc2n(C)c1=O | -6%
CCN1CCN(Cc2nc3c(c(=O)n(C)c(=O)n3C)n2CCc2ccccc2)CC1 | -2%
O=C(NCCCNC(=O)c1ccco1)c1ccco1 | -2%
COc1cccc(C(=O)CSc2nnc(CNS(C)(=O)=O)n2-c2ccc(C)cc2)c1 | -16%
O=C(c1ccco1)N1CCN(C(=O)c2cnn3c2NC(c2cccs2)CC3C(F)(F)F)CC1 (stereo not drawn) | 4%
CCOC(=O)N1CCC(NC(=O)CSc2cc(=O)n(CC)c3ccccc23)CC1 | ?
COc1cccc(C2/C(=C(/O)c3ccncc3)C(=O)C(=O)N2CCCN2CCOCC2)c1OC (stereo not drawn) | 4%
C/C(=C\c1ccco1)C1Nc2cccc3cccc(c23)N1 | -25%
O=C(c1ccco1)N(c1ccccn1)c1ccccn1 | 10%
COC(=O)C1=C(C)NC2=C(C(=O)CCC2)C1c1ccsc1 (stereo not drawn) | ?
Cc1cc(NS(=O)(=O)c2ccc(NC(=O)C(C)Oc3ccc4c(C)cc(=O)oc4c3)cc2)no1 (stereo not drawn) | 10µM*
O=C(c1cnccn1)N1CCC[C@@]2(CCN(c3ccncc3)C2)C1 | 9%
O=C(NCCN1CCOCC1)c1cc(-c2ccc(Br)cc2)on1 | 8%
O=C(CN1CCN(Cc2ccccc2)CC1)N1CCCc2c1c(=O)oc1ccc(O)cc21 | -3%
CC1=C(C(=O)OC(C)C)C(c2cccs2)N2C(=O)C(C)SC2=N1 (stereo not drawn) | 3%
Nc1ncnc2c1ncn2[C@@H]1O[C@H](COP(=O)(O)O)[C@@H](O)[C@@H]1O | 1%[25.6 µM]
CCC(C)NC(=O)C1CCN(c2nc(C)cc(C)n2)CC1 (stereo not drawn) | -6%
Cc1cc(C)n2nc(SCC(=O)N(C)c3ccccc3)nc2n1 | 12%
COc1cccc(-c2nc(CSCC(=O)N3CCc4ccccc43)c(C)o2)c1 | -9%
COc1ccc2[nH]c3c(=O)n(CCCCC(=O)N4CCCC4)c(=S)[nH]c3c2c1 | ?
CN1CCc2c(cc(O)c(O)c2Cl)[C@H](c2cccc(Cl)c2)C1 | 25µM*
COc1ccc(-c2nc(C(N)=O)c3[nH]c(=O)n(-c4cccc(Cl)c4)c3n2)cc1OC | 12%

The list continues.
SMILES | HSD17B inh
CCOC(=O)Cc1csc(NC(=O)c2ccc(C)o2)n1 | -1%
CC(C)c1ccc(CNc2ccc(N3CCOCC3)cc2)cc1 | -7%
CC(=O)C1=C(C)NC(=O)NC1c1ccc(OC2CCCC2)cc1 (stereo not drawn) | 20%
O=C(NC1CCN(Cc2ccccc2)CC1)C1CCN(S(=O)(=O)c2cccc3cccnc23)CC1 | 6%
O=C(NCCCNC(=O)c1ccccn1)c1ccccn1 | -2%
CC(NS(C)(=O)=O)C(c1cccs1)N1CCN(c2ccccc2F)CC1 (stereo not drawn) | 3%
Cc1ccc(S(=O)c2ccc(C)cc2)cc1 | -4%
CCN(CC)CCOC(=O)C(Cc1cccc2ccccc12)CC1CCCO1 (stereo not drawn) | 0%
CC1=C(C(=O)NCc2ccccn2)C2(CCC(C)CC2)OC1=O (stereo not drawn) | -1%
COc1ccc(OC)c(NC(=O)C2CCN(S(C)(=O)=O)CC2)c1 | 1%
COc1ccccc1N1CCN(C(c2cccs2)c2nnnn2C2CCCC2)CC1 (stereo not drawn) | -8%
O=C(c1cccc(F)c1)N1CCC2(CC1)CN(c1ccccc1)C2 | -1%
COC(=O)Cn1cnc2sc(C)c(S(=O)(=O)N3CCC(C)CC3)c2c1=O | 3%
CC(O)Cc1nsc(NC(=O)c2cccs2)n1 (stereo not drawn) | -9%
COc1ccc2nccc(SCC(=O)O)c2c1 | 2%[11.4 µM]
Nc1ncnc2c1ncn2[C@@H]1O[C@H](CO)C[C@@H]1O | 7%
COc1ccc2nc(SCc3cnc(C)nc3N)[nH]c2c1 | 5%
CCOC(=O)CN1CC23C=CC(O2)C(C(=O)NCc2ccccc2OC)C3C1=O (stereo not drawn) | 5%
Cn1nnnc1SCC1=C(C(=O)O)N2C(=O)C(NC(=O)C(O)c3ccccc3)C2SC1 (stereo not drawn) | ?
CCOc1ccc(-c2cc(CCCC(=O)N3CCN(c4ccc(OC)cc4)CC3)no2)cc1 | -23%
O=C(c1ccc(S(=O)(=O)N2CCC(c3nc4ccccc4[nH]3)CC2)cc1)N1CCOCC1 | -1%
COc1ccc(C(=O)N(Cc2nc(-c3ccc(C)cc3)no2)C2CCCCC2)cc1OC | -2%
CSc1nc2c(ccc3ccccc32)o1 | -24%
CN(C(=O)COC(=O)c1ccc2c(c1)OCO2)C1CCS(=O)(=O)C1 (stereo not drawn) | -2%
Cc1cc(=O)n2[nH]c(-c3ccc(F)cc3)nc2n1 | -6%

The list goes on; it opens with the 7 that closed the last part.
SMILES | HSD17B inh
Cn1nnnc1SCC1=C(C(=O)O)N2C(=O)C(NC(=O)C(O)c3ccccc3)C2SC1 (stereo not drawn) | ?
CCOc1ccc(-c2cc(CCCC(=O)N3CCN(c4ccc(OC)cc4)CC3)no2)cc1 | -23%
O=C(c1ccc(S(=O)(=O)N2CCC(c3nc4ccccc4[nH]3)CC2)cc1)N1CCOCC1 | -1%
COc1ccc(C(=O)N(Cc2nc(-c3ccc(C)cc3)no2)C2CCCCC2)cc1OC | -2%
CSc1nc2c(ccc3ccccc32)o1 | -24%
CN(C(=O)COC(=O)c1ccc2c(c1)OCO2)C1CCS(=O)(=O)C1 (stereo not drawn) | -2%
Cc1cc(=O)n2[nH]c(-c3ccc(F)cc3)nc2n1 | -6%
CCn1c(SCC(=O)N2CCCC2)nnc1-c1ccc(S(=O)(=O)N2CCCCCC2)cc1 | 8%
Cc1cc(C)n(-c2ccc(Cl)c(C(=O)Nc3ccc(-c4nnc5n4CCCCC5)cc3)n2)n1 | -8%
O=C(NCCCCC(NC(=O)C1CCCCC1)C(=O)O)c1ccccc1 (stereo not drawn) | 2%
O=C(CC(SCc1ccco1)c1ccc(O)cc1)c1cccs1 (stereo not drawn) | -1%
CCOC(=O)c1ccccc1NC(=O)c1cncc(Br)c1 | 18%
Cc1ccc2cc3cc(C(=O)NCc4ccco4)oc3nc2c1 | 25µM*
CCOc1ccccc1C1CC(c2ccc(F)cc2)Nc2nc(N)nn21 (stereo not drawn) | 2%
Cn1c(=O)cc(SCC(=O)NCCCN2CCOCC2)c2ccccc21 | -30%
Cc1ccc(CN2C(=O)CSc3ccc(C(=O)NCCN4CCOCC4)cc32)cc1 | 5%
Cc1ccc(N(C(=O)C2CCCC2)C2C=CS(=O)(=O)C2)cc1 (stereo not drawn) | -6%
CCOCCOCN(C#N)c1nc(OC)nc(N(C)C)n1 | 10%
O=C1C=C(NCCc2cc(Br)c(O)c(Br)c2)C(=O)c2ncccc21 | -29%[11.4 µM]
COc1cc2c(cc1NC(=O)CN(C)Cc1nc3ccccc3c(=O)[nH]1)oc1ccccc12 | 1%
O=C(Nc1ccncc1)c1cccc(F)c1 | 4%
CCCCOc1ccc(S(=O)(=O)NCc2csc(C)n2)cc1 | 7%
CCOC(=O)C1=C(C)OC(N)=C(C#N)C1c1c(C)nn(-c2ccccc2)c1Cl (stereo not drawn) | ?
CCc1nc2ccccc2c(C(=O)OC2CCOC2=O)c1C (stereo not drawn) | -5%
Cc1ccc(C(=O)Nc2ccc(O)c(C(=O)O)c2)o1 | ?
CCc1ccccc1OCC(=O)NC1CCCC1 | -15%
O=C(CSc1ccc2c(c1)OCCO2)NCC1CCCO1 (stereo not drawn) | 4%
CS(=O)(=O)NC1CCN(Cc2ccccc2)CC1 | 3%
Cc1ccc(-c2nc(C3CCN(S(C)(=O)=O)CC3)no2)cc1 | 3%
O=c1c2cc3c(cc2[nH]c(=S)n1CCN1CCOCC1)OCO3 | -8%
CCOC(=O)C1CCN(C(=O)Cn2cc(C(=O)c3ccco3)c3ccccc32)CC1 | -3%
CCOC(=O)C1=C(CSc2nncn2C)NC(=O)NC1c1cc(OCC)ccc1OCC (stereo not drawn) | 0%

An excerpt from above in order of heavy-atom count, smallest number first:
SMILES | HSD17B inh
Cc1ccc(C(=O)Nc2ccc(O)c(C(=O)O)c2)o1 | ?
CCOC(=O)c1ccccc1NC(=O)c1cncc(Br)c1 | 18%
Cc1ccc(N(C(=O)C2CCCC2)C2C=CS(=O)(=O)C2)cc1 (stereo not drawn) | -6%
O=c1c2cc3c(cc2[nH]c(=S)n1CCN1CCOCC1)OCO3 | -8%
CCOc1ccccc1C1CC(c2ccc(F)cc2)Nc2nc(N)nn21 (stereo not drawn) | 2%
Cc1cc(C)n(-c2ccc(Cl)c(C(=O)Nc3ccc(-c4nnc5n4CCCCC5)cc3)n2)n1 | -8%

Going on with the list:
SMILES | HSD17B inh
COc1ccc(NC(=O)N2CCCC3(CCN(S(=O)(=O)c4ccccc4)CC3)C2)cc1 | 3%
COc1ccc(C2C(C(=O)OCC(=O)N3CCCCC3)CCC(=O)N2c2ccc(OC)cc2)cc1 (stereo not drawn) | 4%
CCN(CC)S(=O)(=O)c1ccc(Nc2nc3ccccc3n3nnnc23)cc1 | ?
O=S(=O)(NCC1CCCO1)c1ccc(S(=O)(=O)N2CCc3ccccc3C2)cc1 (stereo not drawn) | -6%
O=S(=O)(Nc1ccc(S(=O)(=O)N2CCOCC2)cc1)c1ccccc1 | 7%
Cc1ccc(S(=O)(=O)Nc2nsc(N)n2)cc1 | 10%
O=C(CSCC(=O)NCc1ccco1)NCc1ccco1 | 1%
CCOC(=O)N1CCC(NC(=O)CCc2c(C)nc3nc(C)nn3c2C)CC1 | -2%
COCCN(C(=O)CNC(=O)c1cccs1)C(C(=O)NC1CCCC1)c1cccs1 (stereo not drawn) | 9%
Cc1noc(C)c1COC(=O)c1ccccc1NC(=O)Cc1ccccc1 | ?
Clc1ccccc1-c1nnn(Cc2ccc(-c3nn[nH]n3)cc2)n1 | 0%
COc1ccc(Br)cc1/C=c1\sc2nc(-c3ccco3)nn2c1=O | 6.3µM*
Cc1cc(C)n2c(SCc3cccs3)nnc2n1 | 5%
CC1(C)CC(=O)C(CC(=O)Nc2ccc(S(N)(=O)=O)cc2)=C(O)C1 | 13%
CCCc1[nH]nc2c1C(c1ccc(OC)c(Cn3nc(C)c(Br)c3C)c1)C(C#N)=C(N)O2 (stereo not drawn) | -18%
CCOc1ccc2nc(NC(=O)C3CCN(S(=O)(=O)c4cnc[nH]4)CC3)sc2c1 | -1%
CCC1CCCCN1Cc1nc2c(c(=O)n(C)c(=O)n2C)n1Cc1cccc2ccccc12 (stereo not drawn) | 9%
CC1(C)CCC(=O)N[C@H]1CC(=O)C[C@H]1NC(=O)CCC1(C)C | 5%[11.4 µM]
COc1ccc(NC(=O)CC(NCCc2ccccc2)C(=O)O)c(OC)c1 (stereo not drawn) | 15%
Cc1ccccc1C(=O)c1cccn1CC(=O)NCC1CCCO1 (stereo not drawn) | 0%

Assay outcomes deposited in PubChem BioAssay by National Center for Advancing Translational Sciences (NCATS).
